HIV TAR-Tat: HIV-1 TAR-Tat binding disruption; z-score (concentration not given with the values); AID 1259389; HIV-1 TAR RNA, Tat peptide displacement FRET; stronger effect = higher value; actives 0.6% (n = 100,000);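 also: score is relative to mean and SD of negative controls; some compounds called inactive have numbers as strong as hits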
CDC25B-CDK2 inh: human CDC25B-CDK2/CyclinA binding inhibition | HTRF CDC25B-CDK2/CyclinA binding, anti-His/anti-Flag; stronger effect = higher value | z-score (concentration not given with the values) | actives 0.72% (n = 94,000);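 also: score is relative to mean and SD of negative controls; strong numbers were not always called active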
The depositor's hits bear a star; · = not tested or not shown.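 The calls were made as follows: active = z-score from 3 up in half or more of its runs; inactive = the rest.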

Screens in order – HIV TAR-Tat, CDC25B-CDK2 inh
> CCN(CC)CCCNc1oc(/C=C/c2cccs2)nc1C#N
    -1.3, -1.7
> CCOc1ccsc1C(=O)NNC(=O)c1ccco1
    ·, -2.4
> Cc1ccc(C2CC(=O)NC(SCC(=O)OC(C)C)=C2C#N)cc1 (configuration not stated)
    1.4, -1.1
> Cc1nn(-c2nc3ccccc3o2)c2c1C(c1ccc(F)cc1F)CC(=O)N2 (configuration not stated)
    0.86, ·
> CC1CCC(NC(=O)Cn2ncc3c(=O)oc4ccccc4c32)CC1 (configuration not stated)
    0.18, -2.3
> Cc1cc(C)c(OCC(=O)N2N=C3CCC(C)CC3C2(O)C(F)(F)F)c(C)c1 (configuration not stated)
    ·, -0.59
> COc1ccc(CN[C@H]2CS(=O)(=O)C[C@@H]2S(=O)(=O)c2ccc(Cl)cc2)cc1OC
    1.1, -1.6
> COc1cc(C2c3c(oc4ccc(Cl)cc4c3=O)C(=O)N2Cc2ccc3c(c2)OCO3)ccc1O (configuration not stated)
    2.8, -0.44
> O=C(OCc1cc(=O)n2ccsc2n1)c1cccc(Cl)c1
    0.2, ·
> COc1ccc(/C=C/c2sc(C)c(C)[n+]2C)cc1
    0.06, -0.19
> O=C(C1CCN(S(=O)(=O)c2cccnc2)CC1)N1CCSc2ccccc21
    0.64, ·
> CN(Cc1ccccc1)C(=O)Cn1cc(S(=O)(=O)Cc2ccccc2)c2ccccc21
    -0.29, ·
> CCC(C(=O)OCc1cc(=O)n2nc(CCOC)sc2n1)c1ccccc1 (configuration not stated)
    -0.12, ·
> OC(CN1CCN(c2ccc(F)cc2)CC1)C(F)(F)F (configuration not stated)
    ·, -0.91
> CCOC(=O)c1cc(-c2ccc(S(=O)(=O)N3CCN(c4ncccn4)CC3)s2)on1
    -1.2, ·
> CC(C)(CO)NC(=O)c1sc2ccccc2c1Cl
    -0.18, 0.27
> CN(CC(=O)Nc1ccc2c(c1)OCCO2)S(=O)(=O)c1cccc2cccnc12
    ·, -0.96
> COC(=O)CSc1n[nH]c(-c2ccncc2)n1
    -0.11, -0.86
> COc1ccccc1-c1cc(C(F)(F)F)n2ncc(C(=O)OCCN(C)C)c2n1
    1.1, -0.63
> O=C(O)CSc1nnc2n(-c3ccccc3)c3ccccc3n12
    0.93, -1.8
> Cc1cccc(C2CC(=O)NC3=C2C(=O)CC(c2ccccc2Cl)C3)c1 (configuration not stated)
    -1.6, -0.07
> COCCn1c(COc2ccc(OC)cc2)nc2ccccc21
    ·, -2.1
> Cn1c(CSCC(=O)Nc2ccccc2)nnc1SCC(=O)Nc1ccccc1
    ·, -2
> Cc1nn(-c2nncc(-c3ccc(F)cc3)n2)c2c1C(c1ccc(F)cc1)CC(=O)N2 (configuration not stated)
    1.4, 1.1
> O=C(NC1CCCCC1)C1CCN(c2nnc(-n3cccc3)s2)CC1
    1.7, ·
> N#Cc1c(NC(=O)c2ccccc2F)sc2c1CCCC2
    1.6, -4.9
> NC(=O)CSc1nc2nccnc2c(=O)n1CCc1c[nH]c2ccccc12
    0.32, -0.62
> Cc1nc(CNC(=O)C2CCN(C(=O)NC3CCCCC3)CC2)cs1
    1.9, ·
> O=C(CCCn1c(=O)c2cccn2c2cccnc21)N1CCN(C(=O)c2ccco2)CC1
    1.1, ·
> O=C(O)c1cc2c3c(c1)C1C=CCC1C(c1ccccc1)N3CC1CC=CC21 (configuration not stated)
    -6.7, -0.45

Later entries.
Screens in order – HIV TAR-Tat, CDC25B-CDK2 inh
> CSc1nn(-c2ccccc2)cc1C(=O)Sc1ccccn1
    ·, 0.08
> COc1ccc(/C(O)=C2\C(=O)C(=O)N(c3nnc(C)s3)C2c2ccc(C(C)(C)C)cc2)cc1 (configuration not stated)
    0.81, -0.7
> Cc1[nH]c2c(Cl)cccc2c(=O)c1CN1CCN(C)CC1
    ·, -1.2
> O=C(NCCCN1CCC(N2CCCCC2)CC1)C1=Cc2cc(Br)ccc2OC1
    -0.61, ·
> O=C1CCc2cccc3cccc1c23
    ·, -2
> COc1ccc(Nc2nc(N)nc(CN3CCCCC3)n2)cc1
    3.3, -1
> CC1CCC(NC(=O)Cn2ncc3ccsc3c2=O)CC1 (configuration not stated)
    -0.97, -1.4
> CCCSc1nnc(NC(=O)c2nn(-c3ccc(F)cc3)ccc2=O)s1
    0.04, 0.17
> Cc1cn2c(=O)c(S(=O)(=O)NCCc3ccc(Cl)cc3)c(C)nc2s1
    1.4, ·
> CC(C)CCNC(=O)CCS(=O)(=O)c1cc2c(cc1Cl)NC(=O)CO2
    3.2, ·
> Cc1ccc(Nc2cc(C)nc3nncn23)cc1
    2, -0.63
> Cc1occc1C(=O)/C(C#N)=C/N=S(C)(=O)c1ccc(Oc2ccc([N+](=O)[O-])cn2)cc1 (configuration not stated)
    ·, -1.6
> CCCCN(CC)CCNS(=O)(=O)c1ccc2c(c1)oc(=O)n2C
    ·, -2.1
> COC(=O)c1cc2nc(-c3cccs3)cc(C(F)(F)F)n2n1
    -1.4, -1.2
> O=C(NCc1ccc2c(c1)OCO2)c1cnc2sc(N3CCCC3)nn2c1=O
    0.01, ·
> CCC12CN3CC(C)(CN(C1)C3c1ccccc1Cl)C2=O (configuration not stated)
    -0.74, -1.1
> COc1ccc(Br)cc1C(=O)Nc1ccc2oc(-c3ccncc3)nc2c1
    ·, -10
> Cc1ccc(C2N(c3ccc(F)cc3)C(=O)C3CCCN32)cc1 (configuration not stated)
    0.15, 0.71
> Fc1ccccc1N1CCN(CCCNc2ccc3nncn3n2)CC1
    ·, -0.99
> Cc1ccnc(NC(=O)C2CCN(S(=O)(=O)c3ccc4c(c3)CC(C)N4C(=O)C3CC3)CC2)c1 (configuration not stated)
    -0.65, ·
> Cc1[nH]c2ccccc2c1C(Nc1ccccn1)c1ccccn1 (configuration not stated)
    ·, -1.5
> c1ccc2c(-c3nnc(CN4CCCC4)o3)c[nH]c2c1
    1.3, -1
> COc1ccc(NC(=O)CSC2=NS(=O)(=O)c3ccccc3N2)cc1OC
    2.8, ·
> O=C(NCc1cccn1Cc1cccc(F)c1)NCC1CCCO1 (configuration not stated)
    0.49, ·
> O=C(CSc1nc2c(c(C(F)(F)F)n1)CCc1ccccc1-2)N1CCCC1
    0, -1.3
> COc1ccc(S(=O)(=O)N(Cc2cc(CN3CCOCC3)cs2)c2ccc(F)cc2)cc1
    -1, ·
> CCOc1ccc(N(C)S(=O)(=O)c2ccc(-c3cnc(C4CC4)o3)cc2)cc1
    1.5, ·
> Cc1[nH]nc2c1C(c1cccc(O)c1)N(C)C2=O (configuration not stated)
    -0.93, -0.32
> c1ccc(CN2CC(c3nn[nH]n3)CN(Cc3ccccc3)C2)cc1
    ·, -1.8
> c1ccc2c(c1)OCC(c1nn3c(Cn4cnc5ccccc54)nnc3s1)O2 (configuration not stated)
    -0.28, -1.4

Reprinted from the part before: 7 compounds, then new ones.
Screens in order – HIV TAR-Tat, CDC25B-CDK2 inh
> O=C(NCc1cccn1Cc1cccc(F)c1)NCC1CCCO1 (configuration not stated)
    0.49, ·
> O=C(CSc1nc2c(c(C(F)(F)F)n1)CCc1ccccc1-2)N1CCCC1
    0, -1.3
> COc1ccc(S(=O)(=O)N(Cc2cc(CN3CCOCC3)cs2)c2ccc(F)cc2)cc1
    -1, ·
> CCOc1ccc(N(C)S(=O)(=O)c2ccc(-c3cnc(C4CC4)o3)cc2)cc1
    1.5, ·
> Cc1[nH]nc2c1C(c1cccc(O)c1)N(C)C2=O (configuration not stated)
    -0.93, -0.32
> c1ccc(CN2CC(c3nn[nH]n3)CN(Cc3ccccc3)C2)cc1
    ·, -1.8
> c1ccc2c(c1)OCC(c1nn3c(Cn4cnc5ccccc54)nnc3s1)O2 (configuration not stated)
    -0.28, -1.4
> O=S(=O)(Cc1nc(CSc2nnc(SCC3CC3)s2)cs1)c1ccc(Cl)cc1
    ·, -0.89
> Cc1ccn2c(=O)c(Cc3nnc(SCC(=O)Nc4ccccc4Cl)n3C)c(C)nc2c1
    0.87, -0.61
> O=C(O)c1ccc(N2C(=O)CC(N3CCN(Cc4ccc5c(c4)OCO5)CC3)C2=O)cc1 (configuration not stated)
    0.76, -0.38
> COc1ccc(OC)c(NS(C)(=O)=O)c1
    2.3, -1.3
> CCOC(=O)/C(C#N)=C/c1cn(-c2ccccc2)nc1C
    ·, -2.9
> O=C(Cn1cnc(S(=O)(=O)N2CCc3ccccc32)c1)Nc1cccc2c1CCCC2
    -0.54, ·
> CSc1sc(C(=O)N/N=C/c2c(Cl)cccc2Cl)cc1S(=O)(=O)C(C)C
    ·, -0.4
> CC(C)CCn1c(CN2CCCCC2)nc2c1c(=O)n(C)c(=O)n2C
    ·, -1.9
> CCN(CC)CCn1c(C)c(C)c2c1ncn1nc(-c3ccc(F)cc3)nc21
    0.85, -0.31
> CC1=C(C(=O)OCCOc2ccccc2)C(c2ccc(F)cc2)C2=C(CC(C)(C)CC2=O)N1 (configuration not stated)
    ·, -0.56
> COC(=O)c1c(N)sc(C)c1-c1ccc(C)cc1
    1.4, ·
> O=C(NCCCN1CCCC1=O)c1nnc(Cc2ccc3c(c2)OCO3)o1
    0.81, -1
> CCCCNCc1ccc2c(c1)n(C)c(=O)n2C
    -0.51, -0.37
> O=C(Cn1cc2c(n1)CCCCC2)Nc1c(F)cc(F)cc1Br
    0.08, -0.23
> COc1ccc(-c2csc(Nc3cccnc3)n2)cc1OC
    2.1, -0.92
> CN1C(=O)C(Cc2nc3ccccc3c(=O)n2CCCO)c2cc(Br)ccc21 (configuration not stated)
    1.5, -0.3
> CCOC(=O)c1c(NC(=O)c2nn(CC)cc2Br)sc(C)c1C
    ·, -3.2
> O=C(NNC(=O)c1ccc(Cl)cc1)C(=O)NNC(=O)c1ccc(Cl)cc1
    ·, -2.1
> Cc1cc(C)c2c(=O)nc(SCC(=O)N3CCCC3)n(C3CC3)c2n1
    -0.34, ·
> Cc1nc2nc(NC(=O)CC(C)C)nn2c(C)c1Cl
    -0.7, -1.8
> Cc1ccnc(N2C(=O)c3ccccc3C2Nc2cc(F)ccc2F)c1 (configuration not stated)
    1.7, -1.7
> CCS(=O)(=O)c1nc(S(=O)(=O)c2ccc(Cl)cc2)c(NCCCOC(C)C)s1
    0.78, -0.65
> O=C(NCc1ccccn1)C1COc2ccccc2O1 (configuration not stated)
    ·, -0.23
> CCOC(=O)c1c(S(=O)(=O)N(CC)c2ccccc2)c(C)n(C)c1C
    0.73, ·
> Fc1ccc(CNc2c(-c3ccccc3)nc3ncccn23)cc1
    -0.88, ·
> Cc1cc(N=Cc2cccnc2)no1
    ·, -1.4
> CCNc1nc(OC)nc(Oc2ccc(=O)n(C)n2)n1
    2.3, -2.1
> COc1ccc(/C(C#N)=C/c2ccc3c(c2)OCO3)cc1
    ·, -1.9
> CCc1nn2c(=O)cc(CSc3n[nH]c(-c4ccc(C)cc4)n3)nc2s1
    0.1, ·
> Cc1cc(Br)ccc1NC(=O)Nc1cn(CC(C)C)c(=O)c2ccccc12
    1.9, ·

Next entries.
Screens in order – HIV TAR-Tat, CDC25B-CDK2 inh
> COC(=O)c1sc(N2C(=O)c3oc4ccc(C)cc4c(=O)c3C2c2ccc(SC)cc2)nc1C (configuration not stated)
    0.61, 0.27
> O=C1CCCN1c1ccc(S(=O)(=O)NC2CCCCC2)cc1
    1, ·
> CC1CCCN(c2cc(NCC(=O)O)c3c4c(onc24)-c2ccccc2C3=O)C1 (configuration not stated)
    -6, 3*
> O=C(Nc1ccc(C2CCCCC2)cc1)C(=S)NCc1ccccc1
    ·, -0.3
> Fc1ccc(-c2nnc3ccc(NCCN4CCOCC4)nn23)cc1
    -1, 0.11
> Cc1ccc(C(C)C)cc1Oc1cc(Cl)nc(N)n1
    0.38, -0.61
> COc1ccc(C2C3=C(CC(c4ccccc4)CC3=O)Nc3nc4ccccc4n32)cc1 (configuration not stated)
    0.05, -0.91
> CCCCN(CC)C(=O)CCNS(=O)(=O)c1ccc2c(c1)c(=O)n(C)c(=O)n2C
    ·, -1.2
> O=C(Nc1ccc(Br)cc1F)N1CCCC1c1cccs1 (configuration not stated)
    0.16, -1.1
> COCCNC(=O)C(C)n1nc(C)c2sc3ccccc3c2c1=O (configuration not stated)
    3.6, -1.9
> CCc1c(C)nc2cc(-c3ccc(Br)cc3)[nH]n2c1=O
    -1.2, -2.1
> Nc1ccc(Oc2cccc(Oc3ccc(N)cc3)c2)cc1
    1.9, -0.44
> COCCn1c(CN2CCN(S(=O)(=O)c3ccccc3)CC2)nc2ccccc2c1=O
    2, ·
> CCOC(=O)c1sc(=S)n(C)c1C
    0.75, -0.43
> COc1ccc(-c2noc(-c3ccc(C)c(Cl)c3)n2)cc1OC
    0.17, -2.6
> Cn1cc(C(=O)N2CCC3(CC2)OCCO3)c(=O)c2cc(S(=O)(=O)N3CCOCC3)ccc21
    ·, -0.59
> CCn1c(N)c(C(=O)NCc2ccco2)sc1=S
    ·, 0.55
> Cc1ccc(Nc2nc3ccccc3n3c(C)nnc23)cc1Cl
    0.93, -1.7
> Cc1cc2nc(C)c(-c3ccccc3)c(N)n2n1
    2.5, 1.5
> CCn1ccc2cc(S(=O)(=O)N3CCCC(C(=O)N4CCCC(C)C4)C3)ccc21 (configuration not stated)
    0.41, -1.9
> COc1ccc(N2C(=O)C3C4C=CC(CC4)C3C2=O)cc1 (configuration not stated)
    2.1, -0.67
> Nc1nc2c(S(=O)(=O)c3ccc(Br)cc3)nnn2c2ccsc12
    -0.74, ·
> Cc1ccc(C)c(S(=O)(=O)N(CCS(=O)(=O)N2CCNCC2)C2CC2)c1
    1.2, ·
> O=S1(=O)C[C@H](NCc2ccc3c(c2)OCO3)[C@@H](S(=O)(=O)c2ccccc2)C1
    -0.99, -0.99
> CCn1c(=O)c2ccn(CC(=O)O)c2n(CC)c1=O
    0.12, -0.36
> Cn1nc(C(=O)Nc2ccc(F)cc2)c2c1-c1ccccc1OC2
    1.8, -0.9
> CCN1CCN(c2cc3c(cc2F)c(=O)c(S(=O)(=O)c2cc(C)cc(C)c2)cn3CC)CC1
    -0.49, ·

Profiles from above. Order of screens: HIV TAR-Tat	CDC25B-CDK2 inh
CCn1c(=O)c2ccn(CC(=O)O)c2n(CC)c1=O across the screens: 0.12	-0.36
O=S1(=O)C[C@H](NCc2ccc3c(c2)OCO3)[C@@H](S(=O)(=O)c2ccccc2)C1 across the screens: -0.99	-0.99

Assay outcomes from PubChem BioAssay.
